Screening data as filed in PubChem BioAssay.
StopGo reporter: lowers the luciferase signal of an FMDV 2A StopGo reporter. human cells with a luciferase reporter of 2A StopGo recoding; control for the full effect not named in the record. AID 1159524. Potency, µM (top dose mostly 57.9 µM), without a hit: top-dose signal change, negative = less light. actives 1.2% (n = 410,000); active = well fitted falling curve with a large enough effect; inconclusive = small, poorly fitted or top-dose-only effect; inactive = no such curve, though single readings can be large or run the other way; tested in HEK293T cells; note: % is set by controls: 0 for no effect and ±100 for the full control effect; nearly all actives have a fitted effect of over 45% in size; luciferase light after 4 h
Cruzain Triton: cruzain (T. cruzi) inhibition with detergent. Potency, µM, for the others: max response, negative = inhibition, most hits filed as inhibitors. purified cruzain, Z-FR-AMC fluorescence, 0.01% Triton. actives 0.43% (n = 200,000). P25779; active = well fitted curve in the direction sought with a large enough effect; inconclusive = small, poorly fitted or top-dose-only effect, or another doubt; inactive = no such curve, though single readings can be large; an effect the other way counts as inactive or inconclusive;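 note: plate controls were neutral wells for no effect and buffer without enzyme for full effect; nearly all actives have a fitted effect of over 40% in size; top concentration of the series not given in the record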
Target sequence (P25779 123-467 limits assumed): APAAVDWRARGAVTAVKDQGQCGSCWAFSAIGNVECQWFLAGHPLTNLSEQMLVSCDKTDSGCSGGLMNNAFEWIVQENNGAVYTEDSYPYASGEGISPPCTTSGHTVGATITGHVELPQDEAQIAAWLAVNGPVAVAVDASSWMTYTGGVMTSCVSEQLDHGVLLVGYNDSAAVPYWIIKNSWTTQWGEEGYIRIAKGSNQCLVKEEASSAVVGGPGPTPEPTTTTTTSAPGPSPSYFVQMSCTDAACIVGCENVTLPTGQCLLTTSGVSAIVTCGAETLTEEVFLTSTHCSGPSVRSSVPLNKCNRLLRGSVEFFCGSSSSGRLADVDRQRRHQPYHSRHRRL
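Sodium acetate buffer (100 mM, pH 5.5) containing 5 mM DTT and 0.01% Triton X-100 hosted 1.5 nM cruzain and test compound for 15 min at room temperature. Cleavage of 2 uM Z-FR-AMC was then tracked by fluorescence.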
Marburg entry inh: inhibitors of Marburg virus binding or cell entry | Marburg virus pseudotyped entry inhibition, cell reporter; control for the full effect not named in the record; about a third of the inactives were read at about 46 µM | Potency, µM (titrated, usually from 37.8 µM), inactives show at the top dose activity change, negative = inhibition, hits mostly inhibitors | actives 1.8% (n = 300,000) | AID 540276; active = well fitted inhibition curve with a large enough effect; inconclusive = small, poorly fitted or top-dose-only effect, or effect the other way; inactive = flat fitted curve, though single readings scatter; tested in HEK293 cells; about a fifth of its hits are not listed in these tables; note: % is set by controls: 0 for no effect and ±100 for the full control effect; luciferase read-out
RE007 growth inh: less growth of the S. pombe RE007 Vpr strain | S. pombe RE007 Vpr strain, BacTiter-Glo ATP luminescence, 24 h; control for the full effect not named in the record | Potency, µM (titrated, usually from 92.2 µM), for inactives: top-dose activity change, negative = less growth | actives 0.21% (n = 360,000) | AID 651644; active = well fitted falling curve with a large enough effect; inconclusive = small, poorly fitted or top-dose-only effect; inactive = no such curve, though single readings can be large or run the other way;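 note: % is set by controls: 0 for no effect and ±100 for the full control effect; nearly all actives have a fitted effect of over 50% in size; the assay follows cell death caused by Vpr and the record does not say whether a fall means rescue or toxicity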
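Fission yeast RE007 carrying one integrated HIV-1 vpr copy, seeded at OD 0.01 in PMG+AL medium with 23 nL pinned compound. Grown 24 h at 30 degrees; viability read by BacTiter-Glo luminescence after 5 min.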
SARS PLpro yeast: blocks SARS-CoV papain-like protease in a yeast assay; S. cerevisiae expressing SARS-CoV PLpro, growth rescue; control for the full effect not named in the record; Potency, µM (top dose mostly 32.9 µM), without a hit: at the top dose activity, positive = growth rescue; actives 0.19% (n = 330,000); note: 0% is about no effect; nearly all actives have a fitted effect of over 55% in size; growth read by luminescence after 48 h
NS1 inh: inhibitors of influenza NS1 protein function | AID 2326 | actives 0.4% (n = 270,000) | S. cerevisiae slowed by influenza A NS1, growth recovery by OD600 | Potency, µM (highest dose often 46.1 µM), for the others: at the top dose activity, positive = more growth; note: actives are rising curves; nearly all actives have a fitted effect of over 50% in size
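OD600 was taken as the measure of yeast growth restored by compound in an NS1-expressing S. cerevisiae strain. Cells had been washed out of glucose medium and diluted 1:100 into galactose -URA medium, pH 6.0.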
Lassa entry inh: inhibitors of Lassa virus binding or cell entry | Lassa virus pseudotype entry inhibition, cell reporter; control for the full effect not named in the record | Potency, µM (doses to about 37.9 µM), for the others: at the highest dose activity change, negative = inhibition, usual class: inhibitors | actives 1.2% (n = 300,000) | AID 540256; active means well fitted inhibition curve with a large enough effect; inconclusive means small, poorly fitted or top-dose-only effect, or effect the other way; inactive means flat fitted curve, though single readings scatter; tested in HEK293 cells; note: % is set by controls: 0 for no effect and ±100 for the full control effect; nearly all actives have a fitted effect of over 50% in size; luciferase read-out
Cruzain inh noDet: inhibitors of Trypanosoma cruzi cruzain without detergent. Potency, µM, for inactives: max response, negative = inhibition, most hits filed as inhibitors. AID 1476. actives 2.3% (n = 200,000). purified cruzain, Z-FR-AMC fluorescence, no detergent; active = well fitted curve in the direction sought with a large enough effect; inconclusive = small, poorly fitted or top-dose-only effect, or another doubt; inactive = no such curve, though single readings can be large; an effect the other way counts as inactive or inconclusive;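 note: plate controls were enzyme without inhibitor for no effect and buffer without enzyme for full effect; nearly all actives have a fitted effect of over 40% in size; top concentration of the series not given in the record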
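Detergent-free condition (0.00005% Triton X-100) in acetate buffer pH 5.5 with DTT. 1.5 nM enzyme and compound were pre-mixed 15 min, then 2 uM Z-FR-AMC substrate added; reaction progress from fluorescence change between first and third reads (60 s).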
Active calls of the source: *; ? = inconclusive; . = no result given; [ ] = remark or other dose. Unless noted, calls come from the whole dose curve; as a rule, active means well fitted rising curve with a large enough effect; inconclusive means small, poorly fitted or top-dose-only effect; inactive means no such curve, though single readings can be large or run the other way. Potency is the fitted concentration of half-maximal effect. Compounds were not picked by outcome; about 4.7% have a hit in one of these screens.

SMILES	StopGo reporter	Cruzain Triton	Marburg entry inh	RE007 growth inh	SARS PLpro yeast	NS1 inh	Lassa entry inh	Cruzain inh noDet
CCCC(CNC(=O)COC(=O)C1=NNC(=O)CC1)c1ccc(Cl)cc1Cl (stereo not given)	-7%	.	-9%[46.1 µM]	12%	0%	.	0%[46.1 µM]	.
Cc1cc2ncn(S(=O)(=O)N3CCOCC3)c2cc1C	0%	-2.8%	6%	3%	0%	3%	-4%	6%
CC(=O)c1ccc(S(=O)(=O)N2CCN(C(=O)CCC3CCCC3)CC2)cc1	-23%	.	-20%	-3%	-2%	.	-18%	.
Fc1ccc(Oc2ccc3nnc(C(F)(F)F)n3n2)cc1	7%	.	?	9%	-2%	.	1%[46.1 µM]	.
Cc1ccccc1C(=O)N1CCC(C(=O)NCCc2ccc(S(N)(=O)=O)cc2)CC1	28%	.	-2%	8%	-5%	8%	0%	.
Cc1c(N=Cc2ccc(-c3ccc(Cl)cc3)o2)c(=O)n(-c2ccccc2)n1C	2%	-4.6%	0%	8%	1%	-61%	5%	13%
CCCN1C(=O)C(NC(C)=O)c2cc(OC)ccc21 (stereo not given)	0%	3.0%	2%	-24%	-6%	10%	-27%	13%
COc1ccc(C(C(=O)NC2CCCC2)N(C(=O)CNC(=O)c2ccco2)c2cccnc2)cc1 (stereo not given)	24%	.	1%[46.1 µM]	-5%	-1%	20%	-3%	.
c1csc(-c2nnc3ccccn23)c1	-19%	-0.2%	?	-4%	-4%	3%	?	?
NS(=O)(=O)c1ccc(NC(=S)NC2CC2)cc1	-8%	.	.	6%	1%	?	.	.
Nc1cc2nn(-c3ccccc3)nc2cc1Cl	0%	.	-26%[46.1 µM]	-7%	0%	.	?	.
COc1cc(S(=O)(=O)NCc2ccccn2)ccc1Cl	46%[activator]	.	19%	4%	-7%	10%	0%	.
O=Cc1ccc(-c2ccccc2OC(F)(F)F)o1	0%	-1.7%	-3%	-17%	-1%	9%	10%	-9%
Cc1ccc(CC(=O)NCc2nc(-c3cccc(C)c3)no2)cc1	-4%	-8.4%	14%[46.1 µM]	.	.	.	-37%[46.1 µM]	-7%
CCOC(=O)c1ccc(Oc2c(C)oc3c(CN4CCN(C)CC4)c(O)ccc3c2=O)cc1	1%	-4.4%	?	9%	-1%	-28%	7%	15%
O=C(CSc1nnc(-c2ccc(C(F)(F)F)cn2)s1)c1ccccc1	-11%	.	24%[46.1 µM]	1%	1%	0%	27%[46.1 µM]	.
Cc1ccc(NC(=O)C(=O)NCC2CCCO2)cc1 (stereo not given)	45%[activator]	.	.	-19%	0%	1%	.	.
NS(=O)(=O)c1ccc(N2N=C(c3ccccc3)CC2c2ccc(F)cc2)cc1 (stereo not given)	0%	-4.2%	?	6%	-17%	-18%	?	?
Cc1ccc(CN(Cc2cccnc2)C(=S)Nc2cccc(Cl)c2C)cc1	-10%	.	?	3%	2%	.	?	.
CC1=NN(c2ccccc2)C(=O)C1C(=O)c1cc([N+](=O)[O-])cc([N+](=O)[O-])c1 (stereo not given)	-19%	.	12%[46.1 µM]	-25%	0%	.	.	.
COc1ccc(Cn2cc(F)c(=O)n(CCC(C)C)c2=O)cc1[N+](=O)[O-]	-28%	-3.3%	?	23%	-6%	-18%	-16%	-5%
CC(=O)N1CCCc2cc(S(=O)(=O)N3CCN(c4ccc(F)cc4)CC3)ccc21	?	-3.2%	.	.	.	.	-18%[46.1 µM]	?
O=Cc1ccccc1OS(=O)(=O)c1ccccc1	-19%	3.6%	19%	8%	-32%	-1%	1%	3%
CCN(CC(=O)NCc1ccc(Cl)cc1)C(=O)C(C)Sc1ccccc1 (stereo not given)	-13%	.	1%	-16%	1%	-2%	1%	.
CCOC(=O)/C=C/C(=O)Nc1nccs1	?	-4.4%	?	-29%	-47%	-19%	-5%	1%
Cc1cccc(-n2nnc(C(=O)NC3CCCc4ccccc43)c2N)c1 (stereo not given)	-15%	-5.4%	?	-5%	-17%	-46%	?	?
Cc1ccc(NC(=O)CCn2c(=O)[nH]c3ccsc3c2=O)cc1C	14%	.	8%[46.1 µM]	6%	-2%	2%	20%[46.1 µM]	.
CC(C)c1ccc(OCC(=O)NCc2ccco2)cc1	20%	-5.6%	25%	-18%	-12%	-13%	19%	0%
CN(C)S(=O)(=O)c1cc(NC(=O)COC(=O)CCSc2ccc(Cl)cc2)ccc1Cl	-11%	-7.2%	3%	-3%	-23%	6%	-5%	9%
COc1cc2c(cc1OC)C(COc1ccc3c(C)cc(=O)oc3c1)N(C(=O)Cc1ccc(F)cc1)CC2 (stereo not given)	0%	0.2%	8%[46.1 µM]	.	.	.	3%[46.1 µM]	-4%
COc1cc(C(=O)OC2CSCC2NC(=O)c2ccccc2)cc(OC)c1OC (stereo not given)	-13%	.	.	4%	1%	-4%	.	.
COc1ccccc1CNC(=O)/C=C/c1ccc(S(=O)(=O)NCc2ccco2)cc1	-11%	-4.8%	-5%	14%	10%	-5%	2%	-6%
N#Cc1nc(-c2ccc(F)cc2)oc1N1CCCCC1	15%	.	.	-9%	-4%	-2%	.	.
COc1ccc2cc(C(=O)Nc3ccc(O)cc3)sc(=O)c2c1OC	-13%	-9.9%	-6%	-13%	23%	2%	1%	9%
S=C(NCc1cccc(Cl)c1)NC1CCCCC1	13%	-3.9%	19%	.	-67%	-54%	?	-2%
O=C(NCc1ccccn1)c1cccn1-c1ncc(C(F)(F)F)cc1Cl	15%	.	?	0%	-1%	.	-2%	.
Cc1ccc(/C=C/c2nnc(-c3cccs3)o2)cc1	.	-7.3%	12µM*	-6%	3%	-31%	10µM*	-10%
COC(=O)C1CCN(CC(=O)Nc2ccc3c(c2)OCCO3)CC1	12%	.	?	13%	-5%	.	-11%[46.1 µM]	.
C[C@]12c3[nH]c4ccc(Cl)cc4c3CCN1C(=O)[C@@H](CC(=O)NCC13CC4CC(CC(C4)C1)C3)C[C@@H]2C(=O)N1CCCCC1	8%	.	-1%	13%	-18%	.	.	.
O=C(CN1CCN(S(=O)(=O)c2ccccc2)CC1)N1CCCCC1	-16%	.	23%	8%	-6%	.	0%	.
CSc1ccccc1C(=O)N(CC1CCCO1)c1c(N)n(Cc2ccccc2)c(=O)[nH]c1=O (stereo not given)	-11%	.	-9%	0%	-3%	.	-4%[46.1 µM]	.
COc1ccc(/C=N\NC(=O)c2cc(OCC(F)(F)F)ccc2OCC(F)(F)F)cc1	-18%	7.7%	?	0%	0%	-2%	?	-26%
Cc1ccc(NC(=O)c2cc(-c3ccccc3)nn2-c2ccccc2)cc1	-7%	-7.3%	?	-5%	-19%	-3%	?	?
N=c1c(S(=O)(=O)c2ccccc2)cc2c(=O)n3ccccc3nc2n1C1CCCCC1	-27%	.	?	3%	.	.	?	.
CC(C)CC(=O)NC(Nc1ccccc1F)C(Cl)(Cl)Cl (stereo not given)	-8%	-0.8%	-25%	-4%	4%	-21%	4%	-3%
Cc1nn(-c2nc3ccccc3s2)c(C)c1Oc1ccccc1O	-100%	-8.1%	4.6µM*	10%	-21%	-14%	?	-13%
CC(C)(C)NS(=O)(=O)c1ccc(NC(=O)C2CCCCC2)cc1	-2%	.	-28%[46.1 µM]	4%	0%	-2%	?	.
CCOC(=O)c1ccc(NC(=O)COc2ccccc2CNC2CCCC2)cc1	-21%	.	8.9µM*	-1%	0%	6%	?	.
CCOc1ccc(NC(=O)c2cn(C3CCCCC3)c(=O)c3c2c2ccccc2n3C)cc1	-12%	-1.8%	1%[46.1 µM]	.	.	.	7%[46.1 µM]	17%
O=C(CSc1ccc2nnc(CCNC(=O)c3ccccc3)n2n1)NCCc1ccccc1	-4%	.	.	15%	-2%	1%	.	.
O=C(NC1CCCC1)c1ccc(CN2CCOCC2)cc1	22%	-2.4%	0%	0%	0%	12%	18%	-6%
C=CCn1c(Sc2ncc([N+](=O)[O-])s2)n[nH]c1=O	?	.	?	?	-4%	-35%	?	.
C=CCN(CC=C)CCOc1ccc(C)cc1[N+](=O)[O-]	49%[activator]	.	?	-1%	0%	1%	?	.
CC1=C(C(=O)OC(C)C)C(c2ccc(Cl)cc2)n2c(s/c(=C\c3ccc(OCC(=O)O)cc3)c2=O)=N1 (stereo not given)	?	.	.	1%	1%	?	.	.
CCC(C)(C)C(=O)Nc1cc([N+](=O)[O-])ccc1Cl	-21%	-0.5%	0%	-7%	2%	1%	-1%	0%
COc1ccc(C(C)(C)C)cc1NC(=O)c1c(C)noc1C	-20%	-4.0%	-9%	-2%	0%	12%	-16%[14.3 µM]	-1%
O=C(NCc1ccncc1)c1ccc(NS(=O)(=O)c2ccccc2)cc1	0%	.	16%	-5%	.	.	-1%	.
Cc1ccc(O)c(NC(=O)c2cc(-c3ccccc3Cl)on2)c1	50%[activator]	.	?	-3%	-2%	9%	1%	.
O=C(CCCCCn1c(SCc2ccncc2)nc2ccccc2c1=O)NCc1ccco1	0%	-7.1%	?	7%	10%	-53%	-2%	12%
Cn1c2ccccc2c(=O)c2ccc(C#Cc3ccc(N)cc3)cc21	-3%	.	.	-9%	-29%	-18%	.	.
O=C(CCCN1C(=O)c2ccccc2C1=O)Nc1sc2c(c1C(=O)NCc1ccco1)CCC2	-1%	-9.0%	?	6%	-1%	12%	-4%	-26%
CCC(CC)=NNc1cccc([N+](=O)[O-])c1	-9%	-21%	-13%	192%	-20%	15%	-5%	?
Cc1cc(C(=O)NC2CCCCC2)c(C)o1	18%	.	?	14%	5%	.	20%	.

Ordered by SMILES length (ascending): part of the list above.
SMILES	StopGo reporter	Cruzain Triton	Marburg entry inh	RE007 growth inh	SARS PLpro yeast	NS1 inh	Lassa entry inh	Cruzain inh noDet
CCC(CC)=NNc1cccc([N+](=O)[O-])c1	-9%	-21%	-13%	192%	-20%	15%	-5%	?
C=CCN(CC=C)CCOc1ccc(C)cc1[N+](=O)[O-]	49%[activator]	.	?	-1%	0%	1%	?	.
O=C(CCCN1C(=O)c2ccccc2C1=O)Nc1sc2c(c1C(=O)NCc1ccco1)CCC2	-1%	-9.0%	?	6%	-1%	12%	-4%	-26%
